Screens from PubChem BioAssay.
Cruzain Triton: blocks cruzain activity in presence of Triton detergent; Potency, µM, for inactives: max response, negative = inhibition, most hits filed as inhibitors; 200,000 tested, 0.43% active; P25779; purified cruzain, Z-FR-AMC fluorescence, 0.01% Triton; AID 1478; active = well fitted curve in the direction sought with a large enough effect; inconclusive = small, poorly fitted or top-dose-only effect, or another doubt; inactive = no such curve, though single readings can be large; an effect the other way counts as inactive or inconclusive;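 also: plate controls were neutral wells for no effect and buffer without enzyme for full effect; nearly all actives have a fitted effect of over 40% in size; top concentration of the series not given in the record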
Target sequence (P25779 123-467 limits assumed): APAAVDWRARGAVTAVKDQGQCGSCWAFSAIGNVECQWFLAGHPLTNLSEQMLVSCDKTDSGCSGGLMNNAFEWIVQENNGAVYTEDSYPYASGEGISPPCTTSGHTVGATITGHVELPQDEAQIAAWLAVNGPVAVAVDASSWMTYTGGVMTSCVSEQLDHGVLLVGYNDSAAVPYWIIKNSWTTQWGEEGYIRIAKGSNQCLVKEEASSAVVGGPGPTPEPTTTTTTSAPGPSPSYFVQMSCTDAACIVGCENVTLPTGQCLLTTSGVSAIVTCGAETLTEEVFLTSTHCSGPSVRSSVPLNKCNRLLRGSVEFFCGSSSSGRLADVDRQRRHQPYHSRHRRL
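Z-FR-AMC hydrolysis (2 uM substrate) by cruzain (1.5 nM) monitored kinetically at ex 360/em 450 nm after 15 min room-temperature compound exposure; 0.01% Triton X-100, pH 5.5, 5 mM DTT.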
Marburg entry inh: inhibitors of Marburg virus binding or cell entry; Potency, µM (titrated, usually from 37.8 µM), for inactives: at the highest dose activity change, negative = inhibition, hits mostly inhibitors; 300,000 tested, 1.8% active; Marburg virus pseudotyped entry inhibition, cell reporter; control for the full effect not named in the record; about a third of the inactives were read at about 46 µM; AID 540276; active = well fitted inhibition curve with a large enough effect; inconclusive = small, poorly fitted or top-dose-only effect, or effect the other way; inactive = flat fitted curve, though single readings scatter; tested in HEK293 cells; about a fifth of its hits are not listed in these tables; also: % is scaled to controls: 0 for no effect and ±100 for the full control effect; luciferase read-out
Cruzain inh noDet: cruzain (T. cruzi) inhibition without detergent. Potency, µM, inactives show max response, negative = inhibition, usual class: inhibitors. 200,000 tested, 2.3% active. AID 1476. purified cruzain, Z-FR-AMC fluorescence, no detergent. P25779; active = well fitted curve in the direction sought with a large enough effect; inconclusive = small, poorly fitted or top-dose-only effect, or another doubt; inactive = no such curve, though single readings can be large; an effect the other way counts as inactive or inconclusive;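 also: plate controls were enzyme without inhibitor for no effect and buffer without enzyme for full effect; nearly all actives have a fitted effect of over 40% in size; top concentration of the series not given in the record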
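Purified cruzain at 1.5 nM, pre-incubated 15 min with compound at room temperature in 100 mM sodium acetate pH 5.5, 5 mM DTT, 0.00005% Triton X-100. Reaction started with 2 uM Z-FR-AMC; AMC fluorescence increase over 60 s gives rate.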
Lassa entry inh: blocks Lassa virus binding to or entry into cells. Lassa virus pseudotype entry inhibition, cell reporter; control for the full effect not named in the record. Potency, µM (titrated, usually from 37.9 µM), for the others: at the highest dose activity change, negative = inhibition, actives largely listed as inhibitors. 300,000 tested, 1.2% active; active means well fitted inhibition curve with a large enough effect; inconclusive means small, poorly fitted or top-dose-only effect, or effect the other way; inactive means flat fitted curve, though single readings scatter; tested in HEK293 cells; also: % is scaled to controls: 0 for no effect and ±100 for the full control effect; nearly all actives have a fitted effect of over 50% in size; luciferase read-out
SARS PLpro yeast: SARS-CoV PLP inhibition in yeast | S. cerevisiae expressing SARS-CoV PLpro, growth rescue; control for the full effect not named in the record | Potency, µM (series often up to 32.9 µM), for the others: top-dose activity, positive = growth rescue | 330,000 tested, 0.19% active; also: 0% is about no effect; nearly all actives have a fitted effect of over 55% in size; growth read by luminescence after 48 h
RE007 growth inh: less growth of the S. pombe RE007 Vpr strain; 360,000 tested, 0.21% active; S. pombe RE007 Vpr strain, BacTiter-Glo ATP luminescence, 24 h; control for the full effect not named in the record; AID 651644; Potency, µM (top dose mostly 92.2 µM), for inactives: at the top dose activity change, negative = less growth; active = well fitted falling curve with a large enough effect; inconclusive = small, poorly fitted or top-dose-only effect; inactive = no such curve, though single readings can be large or run the other way;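 also: % is scaled to controls: 0 for no effect and ±100 for the full control effect; nearly all actives have a fitted effect of over 50% in size; the assay follows cell death caused by Vpr and the record does not say whether a fall means rescue or toxicity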
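Fission yeast RE007 carrying one integrated HIV-1 vpr copy, seeded at OD 0.01 in PMG+AL medium with 23 nL pinned compound. Grown 24 h at 30 degrees; viability read by BacTiter-Glo luminescence after 5 min.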
StopGo reporter: FMDV 2A StopGo reporter, luciferase signal. AID 1159524. human cells with a luciferase reporter of 2A StopGo recoding; control for the full effect not named in the record. Potency, µM (doses to about 57.9 µM), for inactives: at the top dose signal change, negative = less light. 410,000 tested, 1.2% active; active = well fitted falling curve with a large enough effect; inconclusive = small, poorly fitted or top-dose-only effect; inactive = no such curve, though single readings can be large or run the other way; tested in HEK293T cells; also: % is scaled to controls: 0 for no effect and ±100 for the full control effect; nearly all actives have a fitted effect of over 45% in size; luciferase light after 4 h
NS1 inh: influenza NS1 inhibition; Potency, µM (titrated, usually from 46.1 µM), for the others: at the top dose activity, positive = more growth; 270,000 tested, 0.4% active; S. cerevisiae slowed by influenza A NS1, growth recovery by OD600; also: actives are rising curves; nearly all actives have a fitted effect of over 50% in size
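Read-out: OD600 growth recovery of NS1-expressing budding yeast. Cells grown overnight at 30C in -URA glucose medium, washed, resuspended and diluted 1:100 in 2% galactose assay medium, pH 6.0. Same strain lacking NS1 served as positive control.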
Numbers without * were called inactive; ? = inconclusive; / = no result given; & = joins results of further samples; [ ] = another dose, or the depositor's remark. Unless noted, calls follow the shape of the dose curve; as a rule, active means well fitted rising curve with a large enough effect; inconclusive means small, poorly fitted or top-dose-only effect; inactive means no such curve, though single readings can be large or run the other way. Potency is read from the fitted curve at half-maximal effect.

| Structure | Cruzain Triton | Marburg entry inh | Cruzain inh noDet | Lassa entry inh | SARS PLpro yeast | RE007 growth inh | StopGo reporter | NS1 inh |
| --- | --- | --- | --- | --- | --- | --- | --- | --- |
| CCOC(=O)C(C)NC(=O)Cn1ncc2c(=O)oc3ccc(C)cc3c21 (stereo unspecified) | / | / | / | / | -1% | 8% | -24% | ? |
| CSc1ccccc1-c1nnc(-c2ccc(C)cc2)o1 | -1.2% | ? | -2% | ? | -4% | ? | 8% | -40% |
| Cc1cc(C)c(C)c(S(=O)(=O)N2CCC(C(=O)Nc3ccc(S(=O)(=O)N4CCOCC4)cc3)CC2)c1C | / | ? | / | -27% | -2% | 18% | ? | ? |
| CC1CN(c2ccccn2)C(C)CN1C(=S)Nc1ccccc1 (stereo unspecified) | / | 3% | / | -16% | / | -11% | -14% | / |
| CCOC(=O)N1CCN(S(=O)(=O)c2ccc(C)c([N+](=O)[O-])c2)CC1 | / | ? | / | 6% | -1% | 5% | -21% | 0% |
| O=C(Cc1ccc([N+](=O)[O-])cc1)Nc1ccc2c(c1)OCO2 | / | ? | / | 19%[46.1 µM] | -5% | 2% | 1% | / |
| CC1(C)Cc2c(c(-c3ccccc3)[nH]c(=O)c2C#N)CS1 | -3.6% | 1%&1% | 2% | 1% | 2% | -5% | -1% | 9% |
| Cc1csc(NC(=O)c2ccco2)c1C(=O)c1ccccc1 | / | 3%[46.1 µM] | / | -8% | 0% | 8% | -6% | 3% |
| COc1ccccc1CCNC(=O)C(=O)NCC(c1cccs1)S(=O)(=O)c1ccc(F)cc1 (stereo unspecified) | -2.2% | / | -6% | ? | / | / | ? | / |
| Cc1cc(N(C)C)c(C#N)c(=O)[nH]1 | 2.6% | -6% | 3% | -5% | 12% | 28% | 2% | ? |
| C/C=C(\CS(=O)(=O)c1ccccc1)S(=O)(=O)c1ccccc1 | 2.7% | -30% | -8% | -5% | 0% | 1% | -10% | 0% |
| CCc1nc2ccccc2c(C(=O)Oc2cccc3cccnc23)c1C | -4.8% | 6% | -1% | 1% | 9% | 12% | -12% | 1% |
| CCC1CN1P1(=O)OCC(C)([N+](=O)[O-])CO1 (stereo unspecified) | / | 19% | / | 12%[46.1 µM] | / | 13% | -8% | / |
| CCNc1nc(SCCOc2ccc(C)cc2)nc(N(C)C)n1 | -12% | ? | -7% | -20% | -6% | 7% | 1% | 3% |
| CC1=Nc2cc(C(=O)N3CCCCC3)ccc2Sc2ccc(C)cc21 | -0.7% | -7%&-7%[46.1 µM] | 15% | 14%[46.1 µM] | 3% | -13% | 1%&27% | 1% |
| CCN(C(=O)CSc1ncc2c(n1)-c1cc(Cl)ccc1N(Cc1ccccc1)S2(=O)=O)c1cccc(C)c1 | 0.4% | / | -16% | 30%[46.1 µM] | / | / | 7% | / |
| Cc1c(CC(=O)NCCCO)c(=O)oc2cc3c(cc12)CCC(C)(C)O3 | / | / | / | / | 0% | 1% | 10% | 0% |
| COc1ccc(C(=O)/C=C/c2cccc(OCc3ccccc3)c2)cc1CSCC(=O)O | / | / | / | / | 1% | 6% | ? | 8% |
| Cc1cc(N)ncc1[N+](=O)[O-] | / | -1%[46.1 µM] | / | 11%[46.1 µM] | / | -6% | 11% | / |
| CCc1ccc(N/C(=N/c2nc(C)cc(C)n2)NC(C)=O)cc1 | / | / | / | / | -4% | -11% | -9% | 1% |
| O=C(CCc1ccc(S(=O)(=O)N2CCOCC2)cc1)N1CCCC1 | 2.9% | -2% | -3% | 4% | -1% | -13% | -6% | -2% |
| CCN(CC)NC(=S)Nc1ccccc1 | 2.6% | 25% | -1% | 16% | 21% | -13% | -15% | 12% |
| CCOCCCNC(=S)NCCCNc1nc2c(C)c(C)ccc2cc1C#N | / | ? | / | ? | -1% | 3% | -13% | 8% |
| Cc1cccc(-c2nc(CCNC(=O)c3ccc(Br)o3)cs2)c1 | -12% | / | 9% | 22%[46.1 µM] | / | / | -14% | / |
| c1cc(Nc2cccc3nccnc23)c2nccnc2c1 | / | ? | / | ? | 0% | ? | -7% | -3% |
| Cc1cc(-n2cnc(-c3cn(C)nc3C)n2)no1 | / | ? | / | ? | -1% | 6% | 42%[activator] | 2% |
| O=C(NNC1=C(C(=O)C(F)(F)F)CCC1)c1cccnc1 | / | ? | / | 10% | 2% | 15% | -12% | -1% |
| Cc1cccc(-n2c(-c3ccccc3)nc3ccccc3c2=O)n1 | / | -16%[46.1 µM] | / | 25%[46.1 µM] | 0% | 8% | -9% | 6% |
| COc1ccccc1/C=C1\SC(=O)N(CC(=O)NCCCn2ccnc2)C1=O | / | 7%[46.1 µM] | / | 7%[46.1 µM] | / | 1% | -3% | -10% |
| O=C(NC(=S)Nc1cccnc1Cl)c1ccc(F)cc1 | / | 3%[46.1 µM] | / | / | -2% | -13% | 67%[activator] | -18% |
| Cc1c(CNC2CCCCCC2)c(C(=O)O)c(C)n1Cc1cccc(Cl)c1 | 5.5% | 30%[46.1 µM] | 1% | 1%[46.1 µM] | / | / | 13% | / |
| COc1ccc(C(=O)C2CCCN(C(=O)CCc3ccccn3)C2)c(C)c1 (stereo unspecified) | / | / | / | / | 0% | 6% | -13% | -3% |
| Cc1cccc(-c2c3c(=O)n(C)c(=O)n(C)c3c3cnc4ccccc4n23)c1 | -2.0% | -2%[46.1 µM] | 5% | -12%[46.1 µM] | / | / | -26% | / |
| COc1ccccc1C(=O)Nc1cccc(OCc2cc(=O)n3ccccc3n2)c1 | 4.5% | / | 13% | -9%[46.1 µM] | / | / | 4% | / |
| COc1ccc(CNC(=O)CC2N=C3c4ccccc4N=C(SCC(=O)Nc4ccc(N(C)C)cc4)N3C2=O)cc1 (stereo unspecified) | -6.6% | / | 11% | 8%[46.1 µM] | / | / | 0% | / |
| Cc1ccc(S(=O)(=O)CCC(=O)Nc2ccc(Br)cc2)cc1 | / | 5%[46.1 µM] | / | -9%[46.1 µM] | 2% | -6% | -13% | -4% |
| CC(C)c1ccccc1NC(=O)c1ccc(CN(c2ccccc2)S(=O)(=O)c2ccccc2)cc1 | -3.0% | 26% | ? | 0% | 3% | / | / | 16% |
| O=C(Nc1ncccn1)c1ccc(Cl)c([N+](=O)[O-])c1 | / | / | / | / | -4% | -3% | -19% | -2% |
| COC(=O)Cn1cnc(=O)c(C#N)c1/C=C/N(C)C | -3.1% | -7% | -1% | 11% | -4% | 9% | 0% | 7% |
| Cc1ccc(-n2ncc3c2CC(C)(C)CC3NC(=O)c2cc[n+]([O-])cc2)cc1 (stereo unspecified) | / | 0% | / | 19% | 19% | 7% | -21% | 16% |
| c1ccc2c(c1)oc1c(NCCCN3CCOCC3)ncnc12 | -5.2% | 3% | 0% | 6% | 2% | 22% | -23% | -15% |
| COc1cccc(CSc2nc(-c3ccccc3OC)nc3c2Cc2c(CO)cnc(C)c2O3)c1 | -11% | / | ? | ? | / | / | ? | / |
| COCCNC(=O)C1CCN(Cc2cccc(OCc3ccccc3)c2)CC1 | / | ? | / | ? | 3% | 6% | -21% | 6% |
| O=C(/C=C/c1ccc2c(c1)OCO2)NCc1ccco1 | -8.6% | -2% | -18% | 10µM* | -1% | 9% | 21% | 11% |
| COc1ccc(NC(=S)NNC(=O)CCn2cc([N+](=O)[O-])cn2)cc1 | / | 3%[46.1 µM] | / | 16% | -1% | 2% | -12% | 8% |
| Cc1ccc(C)c(C(=O)OCC(=O)Nc2cccc(S(=O)(=O)NC3=NCCCCC3)c2)c1 | / | ? | / | ? | 1% | -18% | ? | / |
| CCCc1nnc(SCc2ccc(OC)cc2)n1N | 7.0% | 0% | 6% | 11% | 1% | -16% | -13% | 6% |
| CCOC(=O)C1CCN(C(c2cc3cc(C)cc(C)c3[nH]c2=O)c2nnnn2C2CCCCC2)CC1 (stereo unspecified) | / | 2%&-21% | / | -14% | / | 0% | 8% | 16% |
| O=C(Nc1ccc(C(=O)N2CCOCC2)cc1)c1cccs1 | 0.6% | 3%[46.1 µM] | -13% | 26% | -5% | -9% | 12% | ? |
| COc1cc(NC(=O)CCc2nnc3ccc(N4CCC(C)CC4)nn23)cc(OC)c1 | / | / | / | / | 15% | -11% | -15% | 4% |
| CCOc1ccc(NC(=S)Nc2ccccc2C2(C)CC2)cc1 | / | -12%[46.1 µM] | / | -25% | 1% | -4% | -16% | -4% |
| CS(=O)(=O)NCCOc1ccc(S(=O)(=O)NCCOc2ccccc2)cc1 | / | -21%[46.1 µM] | / | -13% | 1% | -1% | -10% | / |
| O=C(O)/C=C/C(=O)Nc1ccc(OC(F)F)cc1 | / | / | / | / | -2% | 0% | 12% | -6% |
| CCOC(=O)c1c(NC(=S)N2CCN(C)CC2)sc2c1CCN(C(=O)OCC)C2 | / | ? | / | -16%[46.1 µM] | 0% | -1% | -19% | 1% |
| Cc1ccc(NC(=O)CSc2ccc(-c3cccnc3)nn2)cc1 | / | ? | / | ? | 6% | 13% | ? | 10% |
| C[C@H](NC(N)=O)C(=O)Nc1ccc2c(c1)OCO2 | / | 12%[46.1 µM] | / | 20%[46.1 µM] | 0% | 7% | 14% | -1% |
| O=C(C1CCCN(S(=O)(=O)c2cccc3cccnc23)C1)N1CCN(c2ccc(F)cc2)CC1 (stereo unspecified) | -3.8% | / | 2% | / | 0% | 3% | ? | -18% |

Looked up above:
CS(=O)(=O)NCCOc1ccc(S(=O)(=O)NCCOc2ccccc2)cc1 – StopGo reporter = -10%
CCOc1ccc(NC(=S)Nc2ccccc2C2(C)CC2)cc1 – RE007 growth inh = -4%
